Source: PubChem BioAssay (several laboratories)
Sa RN4220 lethal: growth inhibition of S. aureus RN4220, primary screen, OD600. AID 1259311, 2017. 16 h. 0.33% of 330,000 active. inhibition, % (concentration not given with the values);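 active = z-score of -3 or lower and OD600 up to 0.18 on both plates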;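 note: plate controls were untreated cells for no effect and reference antibiotic for full effect; stock transfer was 100 nL into about 80 µL; one replicate is shown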
Mtb hypoxia inh: PubChem AID 1159583; M. tuberculosis hypoxia-regulated fluorescent reporter, fluorescence; fluorescence inhibition, % (concentration not given with the values); 0.1% of 300,000 active;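 active = 35 to 45% if threefold the growth effect, above 45% if 1.5-fold the growth effect; inactive = the rest, general growth blockers included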;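 note: wells of about 50 µL received 100 nL stock; 0% = vehicle wells and 100% = reference inhibitor wells; whole bacteria with a GFP reporter of the hypoxia response; strong numbers were not always called active; many hits fall short of the cut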
Bead autofluor: counter-screen for toxin protease inhibitors: compound fluorescence; compound autofluorescence counterscreen, microsphere flow cytometry; stronger effect = higher value; fluorescence intensity (concentration not given with the values); 3.1% of 360,000 active; AID 624483;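 active = at least 3 SD above the mean of all compounds, about 16000 in these data; inconclusive = too few beads counted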;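 note: 100 nL of 1 mM stock went into each well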
BJeLR lethal: MLPCN primary cell-based screen for lethality selective to Ras in HRASV12 cells | BJeLR (HRASV12) viability, CellTiter-Glo ATP luminescence, 48 h; reference of the scale not given here | inhibition, % (concentration not given with the values) | 0.17% of 300,000 active;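 active = replicate mean above 50%; inconclusive = above 50% but judged a plate artefact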;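 note: 50 nL library stock added to about 25 µL; numbers are from one replicate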
Sa ugtP lethal: growth inhibition of ugtP-null S. aureus, primary screen, RN4220 ugtP deletion, OD600. 16 h; some inactives read as strong as hits. growth inhibition, % (no concentration beside the values). 0.54% of 330,000 active;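 active = z-score under -3 and OD600 up to 0.15 on both plates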;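 note: plate controls were untreated wells for no effect and antibiotic for full effect; wells of about 80 µL received 100 nL stock; the first replicate is given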
PrP UTR inh: inhibition of PrP 5' UTR reporter expression; cell-based PrP 5' UTR mRNA reporter, plate reader; inhibition, % (concentration not given with the values); 0.35% of 340,000 active;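 active = every replicate at 50% or more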;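 note: 0 = median of the neutral control wells; tested in H4 reporter cells; numbers are from one replicate; inactives centre near -14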
Mtb hypoxia inh growth: second read-out of Mtb hypoxia inh, no call of its own (marks repeat the call); growth inhibition, %; measured here: M. tuberculosis growth (absorbance);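 0% = vehicle and 100% = reference antibiotic; read after six days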
* marks the source's active call; other numbers are inactive results; ? = inconclusive; nt = no result given.

SMILES	Sa RN4220 lethal	Mtb hypoxia inh	Mtb hypoxia inh growth	Bead autofluor	BJeLR lethal	Sa ugtP lethal	PrP UTR inh
Cc1ccccc1NC(=O)CSc1nc(N2CCCCC2)nc(N2CCCCC2)n1	2.2	-3	3	22832*	9	2	-85
CCOc1ccc(CCNC(=O)COC(=O)c2cc(OC)c(OC)c(OC)c2)cc1OCC	3.8	16	3	nt	-25	2	nt
COc1cc(C=NN2CCOCC2)ccc1OC(=O)c1ccco1	17	16	2	nt	nt	8	nt
COc1cc(NC(=O)c2cc3sccc3n2C)cc(OC)c1	7.5	11	10	10687	1	-10	-68
O=C(Nc1ccccc1OC(F)F)c1ccc(-n2cncn2)c([N+](=O)[O-])c1	0.8	-1	-8	5720	9	5	-25
CCC(C)[C@H](N)c1nnc(SCc2cccc(F)c2)o1 (stereo partly drawn)	5.2	5	5	11385	9	8	-15
COc1ccccc1N(C)S(=O)(=O)c1ccc(C(=O)Nc2cc(OC)c(OC)c(OC)c2)cc1	2.5	10	10	3510	nt	1	-6
N#Cc1c(NC(=O)c2ccccc2)sc2c1CCC2	4.4	nt	nt	3492	6	3	-121
Cc1cc(Nc2ccccc2N2CCOCC2)n2ncnc2n1	0.2	4	6	16563*	-1	0	-5
O=C(Nc1nnc(S(=O)(=O)N2CCCCCC2)s1)c1ccc(Cl)cc1	13	0	-1	5331	10	21	2
Cc1ccc2c(CC(=O)OC(C)C(=O)NCc3ccc4c(c3)OCO4)coc2c1 (stereo not drawn)	7.2	7	14	4149	-15	2	-21
O=C(CCCSc1nc2ccccc2[nH]1)Nc1nnc(C2CC2)s1	-1.9	5	7	2088	10	10	-24
COc1ccc(C2c3[nH]c4ccccc4c3CCN2C(=O)c2ccc(=O)n(C)n2)c(F)c1 (stereo not drawn)	3.5	13	-4	2594	10	22	-8
Cc1cc(C(C)(C)C)oc1C(=O)N1CCN(C(=O)c2oc(C(C)(C)C)cc2C)CC1	5.8	13	12	7749	-3	-7	-22
O=[N+]([O-])c1ccc(CN2CCN(Cc3c[nH]c4ccccc34)CC2)cc1	-0.8	-6	-7	4811	nt	-3	-26
CCOC(=O)C(=O)NC(C)c1ccccc1 (stereo not drawn)	-1.8	-18	-2	4953	8	-4	-28
CN1CCN(c2nc3c(c(=O)[nH]c(=O)n3C)n2CCCSc2ncccn2)CC1	4.1	7	11	22784*	6	-9	-18
N=c1n(CCCOc2ccccc2Cl)c2ccccc2n1CC(N)=O	0.6	-4	11	5237	5	-3	-20
Cc1cc(C)c2nc(-c3ccccn3)cc(C(=O)Nn3cnnc3)c2c1	5.0	-2	-5	4357	-11	5	12
CN(c1ccc(OCC(=O)Nc2cc(Cl)ccc2C(=O)O)cc1)S(=O)(=O)c1ccc(F)cc1	4.8	10	5	8641	nt	10	-37
COc1ccc(-c2cc(C#N)nc(NN)n2)cc1	6.2	2	9	3784	-3	-2	-15
CC(C)Oc1ccc(C(=O)OC(C)C(=O)Nc2nc(-c3cccc([N+](=O)[O-])c3)cs2)cc1 (stereo not drawn)	2.9	-13	-3	2711	4	12	-23
COc1cc(C(=O)ONC(=O)c2ccc(OC(F)F)cc2)cc(OC)c1OC	3.4	7	6	3613	4	7	-21
CCCCCN(C(=O)CCC(=O)OCC(=O)N(C)Cc1ccccc1C)c1c(N)n(CCCC)c(=O)[nH]c1=O	0.9	8	1	3991	-3	13	-13
O=C(Cc1ccc(F)cc1)NCCS(=O)(=O)N1CCN(c2ccccc2)CC1	1.4	-3	-5	?	0	6	-1
Remaining list, next part:
SMILES	Sa RN4220 lethal	Mtb hypoxia inh	Mtb hypoxia inh growth	Bead autofluor	BJeLR lethal	Sa ugtP lethal	PrP UTR inh
O=C(O)c1ccc(OS(=O)(=O)c2cccc(C(F)(F)F)c2)cc1	1.6	7	9	3796	nt	-8	-17
COC(=O)/C=C1\NCCNC1=O	3.8	-10	5	4084	5	2	3
Cc1ccc(S(=O)(=O)N2CCC(C(=O)Nc3ccccc3N3CCCC3)CC2)c(C)c1	2.3	6	2	?	-19	2	-11
CSc1ccc(C=NN(C)S(=O)(=O)c2ccc(C)cc2)cc1	-0.7	-4	-22	nt	nt	1	nt
CC(C)C(c1nnnn1Cc1ccccc1)N1CCC(C(N)=O)CC1 (stereo not drawn)	1.8	nt	nt	2980	2	0	-2
CN(C)CCSc1nc(N)c2c3c(sc2n1)COC(C)(C)C3	1.2	-7	3	10780	11	-6	-23
O=C(NCCN1CCCC1)c1ccc2c(c1)N(Cc1ccccc1)C(=O)c1ccccc1S2(=O)=O	0.2	7	-6	7003	2	6	1
CCOC(=O)N1CCC(NC(=O)c2oc3c(C)c(C)ccc3c2C)CC1	-6.2	9	7	5581	5	9	-25
Cc1ccc(NC(=O)CC2S/C(=N/N=C\C=C\c3ccccc3)NC2=O)cc1Cl (stereo not drawn)	4.4	10	5	nt	nt	0	nt
COc1ccc(N2CCN(C(=O)COC(=O)Cc3ccc(F)cc3)CC2)cc1	4.8	9	3	4544	-3	17	-37
COc1ccc(S(=O)(=O)n2ccnc2C)c(C)c1C	1.3	-20	2	4017	-7	-1	-7
COc1ccc(-c2cc3cc(C(=O)O)ccn3c2C(=O)c2ccccc2)cc1	7.2	-6	-2	3835	17	-29	-6
O=C(Nc1cccc(F)c1)c1ccco1	-2.9	0	-8	4218	1	3	-28
CCC(=NC1CCN(Cc2ccccc2)CC1)c1c(O)[nH]c(=O)[nH]c1=O	3.2	-1	4	5175	9	-8	-16
Cc1c(Cl)cccc1NC(=S)N1CCCN(Cc2ccccc2F)C1	-3.0	-1	-1	nt	12	5	-14
COC1(OC)N=C(N)C2(C#N)C(c3ccc(F)cc3)C12C#N (stereo not drawn)	2.2	6	3	3173	-6	7	-19
COc1ccc(Cc2noc(-c3ccc(C)cc3)n2)cc1	2.6	11	5	6910	2	65	-41
CON=CCC(=O)Nc1ccc(Cl)cc1Cl	6.5	5	12	nt	nt	3	nt
O=c1cc(CSc2ccc(S(=O)(=O)N3CCCCC3)cn2)nc2sccn12	0.7	-1	0	4676	5	8	-5
Cc1cc(SCC(=O)c2cccs2)n2nc(C)c(-c3ccc(Cl)cc3)c2n1	7.2	2	2	1987	12	-8	6
CCOc1ccc(-n2c(C)cc(C=C3C(=N)N4C(=NC3=O)SN=C4S(C)(=O)=O)c2C)cc1	13	-2	8	nt	nt	18	nt
CC1(C)OC(=O)C(=CNC(CO)C(=O)O)C(=O)O1 (stereo not drawn)	1.8	9	0	4527	6	-2	-4
CCn1c(SC)nnc1C1CCN(S(=O)(=O)c2ccc(OC)cc2)CC1	7.6	10	12	8657	-5	2	-28
COc1ccc(N2C(=O)CC(N3CCN(Cc4ccc5c(c4)OCO5)CC3)C2=O)cc1 (stereo not drawn)	-0.5	7	13	4242	-19	9	-23
CCOc1ccc2nc(COC(=O)c3cccs3)c(C(C)=O)[n+]([O-])c2c1	3.3	3	2	3291	-12	10	-18

Molecules above that have two or more sulfur atoms (8):
SMILES	Sa RN4220 lethal	Mtb hypoxia inh	Mtb hypoxia inh growth	Bead autofluor	BJeLR lethal	Sa ugtP lethal	PrP UTR inh
O=C(Nc1nnc(S(=O)(=O)N2CCCCCC2)s1)c1ccc(Cl)cc1	13	0	-1	5331	10	21	2
O=C(CCCSc1nc2ccccc2[nH]1)Nc1nnc(C2CC2)s1	-1.9	5	7	2088	10	10	-24
CSc1ccc(C=NN(C)S(=O)(=O)c2ccc(C)cc2)cc1	-0.7	-4	-22	nt	nt	1	nt
CN(C)CCSc1nc(N)c2c3c(sc2n1)COC(C)(C)C3	1.2	-7	3	10780	11	-6	-23
O=c1cc(CSc2ccc(S(=O)(=O)N3CCCCC3)cn2)nc2sccn12	0.7	-1	0	4676	5	8	-5
Cc1cc(SCC(=O)c2cccs2)n2nc(C)c(-c3ccc(Cl)cc3)c2n1	7.2	2	2	1987	12	-8	6
CCOc1ccc(-n2c(C)cc(C=C3C(=N)N4C(=NC3=O)SN=C4S(C)(=O)=O)c2C)cc1	13	-2	8	nt	nt	18	nt
CCn1c(SC)nnc1C1CCN(S(=O)(=O)c2ccc(OC)cc2)CC1	7.6	10	12	8657	-5	2	-28

Other structures follow.
SMILES	Sa RN4220 lethal	Mtb hypoxia inh	Mtb hypoxia inh growth	Bead autofluor	BJeLR lethal	Sa ugtP lethal	PrP UTR inh
FC(F)(F)c1ccccc1NC(=S)N1CCCC1	6.7	-7	-14	4452	-10	5	-37
O=C(Nc1ccc(F)cc1F)c1ccc2c(=O)n3c(nc2c1)CCC3	0.5	2	-7	5893	nt	0	-68
O=C(CNc1cc(S(=O)(=O)N2CCOCC2)ccc1NCC1CCCO1)Nc1ccc(C(F)(F)F)cc1 (stereo not drawn)	4.3	3	10	4556	-7	-4	-26
COc1ccccc1CN1C[C@@H]2C[C@@H](c3[nH]c4ccc(C)cc4c3C)N3CCC[C@@]23C1=O	1.6	15	11	6083	2	-1	-19
O=C(Nc1nnc(Cc2ccccc2)s1)c1ccco1	2.8	0	5	6207	1	-8	-26
CCC(CC)c1nnc(NS(=O)(=O)Cc2ccccc2)s1	6.4	nt	nt	4072	-13	-5	-6
COc1ccccc1C(=O)NCC(=O)NN=Cc1cccc(Cl)c1	1.8	10	5	nt	nt	3	nt
COc1ccc(C)c2sc(N(CCCN(C)C)C(=O)c3ccc(S(=O)(=O)N(C)C)cc3)nc12	2.1	12	-1	2239	-7	13	-37
CC(=O)CN1Cc2ccccc2C1=NC(=O)Nc1ccccc1	1.5	10	4	nt	nt	3	nt
CCCCn1c(C)nc2c(=O)n(C)c(=O)[nH]c21	5.2	-6	3	5835	1	3	-27
CC(=NNc1nc2ccccc2[nH]1)c1ccc([N+](=O)[O-])cc1	1.2	15	3	nt	nt	2	nt
Cc1c(NS(=O)(=O)c2ccc(NCCN3CCOCC3)c([N+](=O)[O-])c2)c(=O)n(-c2ccccc2)n1C	-0.9	6	5	4004	1	8	-28
OCC[n+]1ccc(C=Cc2c[nH]c3ccccc23)cc1	3.8	0	6	nt	nt	-3	nt
CC1(C)N=C(SCC(=O)Nc2ccc(Cl)cc2)C(c2ccc(Cl)cc2)=N1	5.0	20	1	4331	3	-22	-39
O=S(=O)(c1ccc(F)cc1)N1CCn2c(nc3ccccc32)C1	-5.4	8	7	6273	-7	7	-20
CC(C)(C)C(=O)Nc1nnc(-c2ccccc2)c(-c2ccccc2)n1	5.6	19	6	?	-8	4	-16
O=C(O)c1ccccc1N/N=C/c1cc(Br)cc(Br)c1O	nt	nt	nt	3504	12	nt	-75
O=C(NC1CCCCC1)c1c(O)nc2sccn2c1=O	1.0	10	11	5525	11	0	-11
CCOC(=O)COc1ccc(S(=O)(=O)NCC2CCCO2)cc1 (stereo not drawn)	3.1	1	-4	9022	15	2	-9
CCc1nc(SCc2ccccc2C#N)n[nH]1	6.9	10	8	3626	-4	15	-33
O=C(COC(=O)CCc1c[nH]c(=O)[nH]1)Nc1ccccc1Cl	-0.1	18	-3	?	5	2	-15
CC(=O)c1cc2c(cc1NC(=O)c1cc(C)nn1-c1ccccc1)OCO2	4.6	6	4	6165	26	9	-20
COc1ccc(C(=O)c2c(C)oc3cc([N+](=O)[O-])c(O)c([N+](=O)[O-])c23)cc1	15	6	-4	9523	1	-1	-36
CC(=O)NC1N=C(C)N(c2ccccc2)C1=O (stereo not drawn)	-6.1	nt	nt	3670	6	4	-13
COc1cccc(=O)c2c(C)n(CC(=O)c3ccccc3)c(C)c12	5.8	3	7	3818	-6	7	-6
(more compounds)
SMILES	Sa RN4220 lethal	Mtb hypoxia inh	Mtb hypoxia inh growth	Bead autofluor	BJeLR lethal	Sa ugtP lethal	PrP UTR inh
Cc1cc(C)c(S(N)(=O)=O)c(C)c1N(C)S(=O)(=O)c1ccc(Cl)cc1	-5.4	-9	-14	6446	-12	-13	-17
COc1cccc(NC(=O)CN(C)C(=O)CCNC(=O)c2ccccc2Cl)c1	4.3	10	2	3467	nt	7	-8
O=S(=O)(Nc1ncccn1)c1ccc(NC(=S)NCCc2ccccc2)cc1	-2.3	-5	6	3780	-2	1	-30
CCOC(=O)C(NCCc1ccccc1)(NC(=O)CC)C(F)(F)F (stereo not drawn)	3.8	5	10	2493	-2	2	-8
COc1ccc(-c2cc(=O)[nH][nH]2)cc1	-8.9	13	-1	2950	-8	6	-24
CC(C)C(=O)NC(C)C(c1cccs1)N1CCN(C)CC1 (stereo not drawn)	5.0	4	15	23161*	8	-4	-9
COc1ccc(OC)c(C2CC(=O)c3c([nH]c(C(=O)OCC4CCCO4)c3C)C2)c1 (stereo not drawn)	4.3	nt	nt	6193	-7	-8	-12

The order is random; 4% or so of the library scored in one or more.
